# From PubChem BioAssay
# CtBP-E1A inh – CtBP/E1A binding inhibition. AlphaScreen GST-E1A/His-CtBP binding, 1536-well; hits give low values; control for the full effect not named in the record. activity change, % (test concentration not listed). hit rate 0.49% among 340,000; in the data active means activity change below about -65%; inconclusive means about -30% to -65%; inactive means above about -30%; note: % is set by controls: 0 for no effect and ±100 for the full control effect; compound concentration not given in the record
#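 In 5 uL wells, 23 nL compound meets equimolar GST-E1A and His-CtBP (5X stock 125 nM each) for 2 h, 37 °C. Beads (5X, 50 ug/mL) then 1 h, 37 °C, dark.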
# D2 potentiator – potentiates the human D2 dopamine receptor allosterically | P14416 | DiscoveRx D2 beta-arrestin cells, luminescence, 90 min; 100% = 57 uM dopamine signal | potentiation, % (concentration not given with the values) | hit rate 0.23% among 360,000 | AID 624464; active = potentiation of 50% or more; inconclusive = 30% to 50%; inactive = 30% or less;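 note: compound concentration not given in the record; tested on top of an EC20 dose of dopamine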
#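 PathHunter beta-arrestin assay in DiscoveRx D2 cells. Compounds were added with an EC20 of dopamine (50 nM final) for 90 min at 37 deg C. Luminescence was read 1 h after detection reagent, with 57 uM dopamine as the EC100 control.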
# TRPML1 agonist – activates the human TRPML1 channel; hit rate 0.12% among 410,000; AID 624414; activation, % (test concentration not listed); Q9GZU1; TRPML1-expressing cells, Ca2+ dye fluorescence, FDSS; host cell line not named in the record; reference of the full effect not given here; in the data active = activation above about 50%; inconclusive = about 30% to 50%; inactive = below about 30%; note: 0% is about no effect; the text of the record puts the active cut at 80%
#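 Cells: TRPML1-DL, 1X Tet inducer, ~16 h at 37 degrees C/5% CO2. Dye: ABD Ca8 no-wash + quencher, 45-90 min RT. Read: 10 s baseline, compound add, 110 s agonist phase; 54-4 EC80 (4uM final), 110 s antagonist phase.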
# Six1-Eya2 inh – inhibitors of human Six1/Eya2 interaction; Q15475+O00167; AlphaScreen GST-Six1/His-Eya2 binding, biochemical; hits give low values; control for the full effect not named in the record; activity change, % (concentration not given with the values); hit rate 0.56% among 360,000; AID 651725; in the data active = activity change below about -65%; inconclusive = about -30% to -65%; inactive = above about -30%; note: % is set by controls: 0 for no effect and ±100 for the full control effect
# Target sequence (O00167 whole entry, looked up): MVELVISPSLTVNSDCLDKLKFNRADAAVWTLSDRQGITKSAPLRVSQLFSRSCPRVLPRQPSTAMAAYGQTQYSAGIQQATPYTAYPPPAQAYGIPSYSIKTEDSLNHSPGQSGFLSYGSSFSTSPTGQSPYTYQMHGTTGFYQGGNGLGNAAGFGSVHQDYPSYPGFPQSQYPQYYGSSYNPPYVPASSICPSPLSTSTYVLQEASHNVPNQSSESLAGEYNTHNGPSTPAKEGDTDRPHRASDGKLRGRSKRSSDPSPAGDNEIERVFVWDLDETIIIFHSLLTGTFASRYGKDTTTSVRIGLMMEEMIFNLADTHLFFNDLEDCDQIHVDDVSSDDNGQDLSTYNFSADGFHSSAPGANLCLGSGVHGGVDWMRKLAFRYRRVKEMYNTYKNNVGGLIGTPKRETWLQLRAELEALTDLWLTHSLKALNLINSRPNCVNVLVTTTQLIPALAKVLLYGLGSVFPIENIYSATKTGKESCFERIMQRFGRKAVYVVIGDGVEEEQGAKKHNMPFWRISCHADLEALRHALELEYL
# Target sequence (Q15475 whole entry, looked up): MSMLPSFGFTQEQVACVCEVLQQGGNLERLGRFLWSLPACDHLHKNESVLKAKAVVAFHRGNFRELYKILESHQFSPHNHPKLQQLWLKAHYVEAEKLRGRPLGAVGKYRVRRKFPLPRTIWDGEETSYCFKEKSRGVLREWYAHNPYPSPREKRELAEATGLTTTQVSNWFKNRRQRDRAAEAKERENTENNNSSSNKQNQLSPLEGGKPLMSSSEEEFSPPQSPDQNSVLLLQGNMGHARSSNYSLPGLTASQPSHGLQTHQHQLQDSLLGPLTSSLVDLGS
#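 Compounds are tested against tagged Six1 and Eya2 proteins bridged by glutathione donor and nickel acceptor beads; after a one-hour incubation at 37 °C without light, AlphaScreen emission is recorded.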
# TRPML1 inh – inhibitors of human TRPML1 channel; hit rate 0.02% among 390,000; AID 624415; activity change, negative = inhibition, % (concentration not given with the values); TRPML1-inducible cells, Ca2+ dye fluorescence, FDSS; hits give low values; inhibition of EC80 agonist-evoked calcium signal; Q9GZU1; in the data active means activity change below about -50%; inconclusive means about -30% to -50%; inactive means above about -30%;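 note: stimulus is agonist 54-4 at its EC80 concentration; % is set by controls: 0 for no effect and ±100 for the full control effect; compound concentration not given in the record; the text of the record puts the active cut at -80%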
#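 TRPML1-DL cells, Tet-induced overnight (~16 h, 37 °C) at 1,500 cells/well, were loaded with Ca8 no-wash dye plus quencher for 45-90 min at room temperature. Compounds were pinned during FDSS kinetic reading; agonist 54-4 at EC80 (4 uM final) then added.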
# TRPV1 PAM – human TRPV1 potentiation. Q8NER1. TRPV1-expressing cells, Fluo-8 calcium influx, capsaicin EC20 potentiation; host cell line not named in the record; control for the full effect not named in the record. potentiation, % at 8.33 µM. hit rate 0.02% among 320,000. AID 540277; active means potentiation above 80%; inconclusive means 30% to 80%; inactive means below 30%; note: 0% is about no effect
#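 Fluo-8 calcium influx in TRPV1-expressing cells, kinetic read (ex 480/em 520 nm). Compound added and read 3 min for agonist activity, followed by capsaicin at EC20 final and 2 min further read for enhancement.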
# * hit, by the source's call; ? = inconclusive; / = not tested or not shown; & = joins results of further samples. Not a hit list; about 0.95% have a hit in one of these screens.
SMILES,CtBP-E1A inh,D2 potentiator,TRPML1 agonist,Six1-Eya2 inh,TRPML1 inh,TRPV1 PAM
NC(N)=NS(=O)(=O)c1ccc(NC(=S)NC(=O)c2ccc(Br)cc2)cc1,/,-7,1.4,-1,15,26
O=C(CSc1ccc([N+](=O)[O-])cc1)OCC(=O)N1CCCC1=O,/,-6,1.6,6,-3,-14
COc1ccc(OC)c(S(=O)(=O)n2cnc3cc(C)c(C)cc32)c1,-6,-22,2.6,-1,41,-4
Cc1cc(OC(C)C(=O)NCCN2CCOCC2)c2c(C)c(C)c(=O)oc2c1 (stereo not drawn),0,-8,-0.6,5,-12,-5
CC(=O)c1ccc(OCc2cc(C(=O)NCCn3nc(C)cc3C)no2)cc1,0,-8,0.4,0,2,10
Cc1cc(C)n2nc(SCc3nnc(SCc4ccccc4Cl)s3)nc2n1,6,-18,0.6,4,-4,26
COc1ccc(CC(=O)OCC(=O)N2N=C(c3ccccc3)CC2c2ccc(OC)cc2)cc1 (stereo not drawn),-1,12,0.0,-5,18,11
CC(=C/C(=O)O)/C=C/c1ccc([N+](=O)[O-])cc1,8,-4,-0.5,8,-12,2
COc1ccc(CN2CCC(=O)N([C@H](CO)CC(C)C)CC2)cc1OC,0,-1,-0.5&-0.4,20,2,1
Cn1nnc2c[n+](CC(=O)c3ccc4ccccc4c3)cc(Br)c21,4,-12,0.0,4,-1,6
O=C(CNC(=O)c1cccs1)OCc1ccc(Br)cc1,4,0,2.7,5,21,-10
Cc1ccc([N+](=O)[O-])c2cccnc12,-3,0,-0.6,-10,5,-3
COc1ccc(CCNC(=O)CCn2c(=O)c3cccn3c3ccc(F)cc32)c(OC)c1OC,0,9,-1.0&0.3,-3,14&-6,7
Cc1cc(Cl)c(S(=O)(=O)N2CCCCCC2)cc1OCC(N)=O,-1,-18,-0.6,3,-2,-6
O=C(CCC1CCCN(C(=O)CCC(F)(F)F)C1)NCc1ccc(F)c(F)c1 (stereo not drawn),2,-2,0.9,9,-7,9
COc1nc(Cl)cn(-c2ccc(C)cc2)c1=O,0,5,-0.4,3,-22,4
C/C(=N\NC(=O)c1ccc(CSc2nncn2C)cc1)c1cccs1,0,-3,0.1,1,-14,21
Cc1ccc(CNC(=O)CCNS(=O)(=O)c2cccc3nonc23)cc1,8,-13,0.1,1,-5,3
O=C(Nc1ccc(C(=O)N2CCCC2)cc1)C1CCC1,12,0,1.3,5,-25,/
CCOc1c(Cl)cc(/C=C/C(=O)N(CC)CC(=O)NCc2cccs2)cc1OC,1,-22,-0.1,-6,24,-21
Cc1ccccc1NC(=O)CSc1nc(N)c2c3c(sc2n1)CSC(C)(C)C3,-18,-5,-0.3,-18,11,2
CC(=O)Nc1ccc(S(=O)(=O)NCCNc2ccccc2[N+](=O)[O-])cc1,-16,-7,0.5,-7,46,24
Cn1ncc2c(NNC(=O)c3ccc(O)cc3)ncnc21,/,-7,-0.1,0,0,-12
CN(C)c1ccc(C(=O)n2nnc3ccccc32)cc1,2,-8,1.8,3,1,-8
CCOC(=O)C1CCN(c2ncnc3c2c(-c2ccccc2)cn3-c2ccccc2)CC1,0,-4,75*,-4,-17,2
Cc1cccc(N2C(=O)c3cccnc3C2=O)c1,-5,-9,0.2,-6,7,6
O=C(N/N=C/c1ccc(O)c2ncccc12)c1cccc(Br)c1,-92*,-4,1.3,-82*,-23,17
COc1ccc(CNC(=O)C(=O)NCCCn2ccnc2)cc1,6,1,-0.4,3,-3,5
CCc1ccccc1N1CSC2=C(C#N)C(c3cc(OC)c(OC)cc3OC)CC(=O)N2C1 (stereo not drawn),-27,18,-0.9,-28,-14,-25
CCN(CC(=O)NCc1ccc(F)cc1)S(=O)(=O)c1ccc(C)cc1,7,0,-0.8,3,-3,2
CCC(CC)Nc1ccc(C(CC(N)=O)NC(=O)c2ccccc2)cc1[N+](=O)[O-] (stereo not drawn),/,-8,-0.5,-17,-12,-10
CC(=O)c1c(OCC(=O)O)ccc2c(C)cc(=O)oc12,5,-11,-0.4,3,-1,-9
O=C(O)CC(NC(=O)c1cccc(F)c1)c1ccc(OC2CCCC2)cc1 (stereo not drawn),/,-2,-0.8,-8,-1,16
CC1(C)CC(=O)c2cnc(NC(=O)CSC(=S)N3CCCCC3)nc2C1,5,0,0.0,-3,2,12
O=C(C[n+]1ccccc1)N/N=C/c1ccccc1[N+](=O)[O-],22,-1,0.2,-2,14,11
CC(=O)NC(Cc1c[nH]c2ccccc12)C(=O)NCc1ccc2c(c1)OCO2 (stereo not drawn),5,-1,-0.1,-1,-13,1
Cc1ccccc1CSc1ncnc2ccccc12,3,2,2.7,19,18,-31
O=C(CCC(=O)N1CCCC1)Nc1nnc(C(F)(F)F)s1,-5,-7,0.2,0,6,7
COc1ccc(OC)c(NS(=O)(=O)c2ccc3c(c2)C(C)(C)C(=O)N3C)c1,-2,2,0.6&0.1,-4,30&11,-24
CC(=O)OC(C(=O)N1CCOCC1)c1c(F)cccc1F (stereo not drawn),/,2,-0.5,22,-6,-8

# Structures listed so far marked active in Six1-Eya2 inh:
SMILES	CtBP-E1A inh	D2 potentiator	Six1-Eya2 inh	TRPML1 inh
O=C(N/N=C/c1ccc(O)c2ncccc12)c1cccc(Br)c1	-92*	-4	-82*	-23

# Next section:
SMILES,CtBP-E1A inh,D2 potentiator,TRPML1 agonist,Six1-Eya2 inh,TRPML1 inh,TRPV1 PAM
CCOc1cc(-c2noc(CCC(=O)NCC3CCCO3)n2)ccc1OC (stereo not drawn),0,3,0.0,8,11,23
O=C(NCCN1CCOCC1)c1cc(Cl)ccc1Cl,-1,-5,0.6,5,-15,-3
COc1ccc(-c2sc3ccccc3c2-c2ccc(OCCN3CCCCC3)cc2)cc1,-6,-14,0.6,-10,24,/
CC1CCCN(C(=O)C2CCN(S(=O)(=O)c3cccs3)CC2)C1 (stereo not drawn),-3,11,0.7,-7,3,16
Cc1ccc(NCc2nnc(SCC(=O)c3ccccc3)o2)c(C)c1,-13,1,2.5,-20,-11,8
COc1ccc(NC(=O)c2ccc(S(=O)(=O)N3CCOCC3)o2)cc1,4,-2,0.8,-2,-3,-9
CN(C)CCNc1ncnc2c1cnn2-c1ccc(Cl)cc1,0,-11,4.1,0,0,4
N=c1n(CCc2ccccc2)c2ccccc2n1Cc1ccccc1F,-1,-11,0.0,-4,45,28
COCc1nc(-c2cc(OC)c(OC)c(OC)c2)no1,6,-3,-1.0,4,2,19
Cc1ccc(OCc2cc(C(=O)NC3CCCCC3)no2)cn1,/,-14,0.4,5,19,-9
C=CCn1c(=O)c2ccccc2n2c(SCC(=O)/C(C#N)=C(\C)N)nnc12,-2&-4,-3&0,0.5&0.2,1&0,24&14,-12
CCOC(=O)N1CCN(c2nnc(-c3ccc(C)cc3)c3ccccc23)CC1,-4,0,3.0,0,26,-8
Cc1ccc(NC(=S)Nc2cccc3ccccc23)cc1,-12,-3,0.6,-10,-1,1
COc1ccc(CCN=C(N)NS(=O)(=O)c2ccc(OC)c(OC)c2)cc1OC,-4,-5,0.5,11,-12,3
O=C(COC(=O)C1CCC1)c1c[nH]c2ccccc12,0,-7,1.1,5,-4,-17
O=C(c1ccc(-c2cccc(C(F)(F)F)c2)o1)N1CCN(c2ccccc2)CC1,1,-13,-0.9,6,-3,15
CC1(C)CN(c2ccc(Br)cc2Br)C1=O,6,0,1.2,5,0,-4
COc1ccc2[nH]c3c(=O)n(CCCCC(=O)NCCN4CCCC4)c(=S)[nH]c3c2c1,-25,-22,0.1,-28,4,-19
COc1cccc(N=C2SC(C(=O)Nc3ccc(F)cc3)CC(=O)N2C)c1 (stereo not drawn),-3,3,0.4,-1,10,-4
CCNC(=S)/N=C(\N)Nc1nc(C)c2cc(C)ccc2n1,0,-18,1.1,?,30,-2

# Not a retest: 2 of the compounds above.
SMILES,CtBP-E1A inh,D2 potentiator,TRPML1 agonist,Six1-Eya2 inh,TRPML1 inh,TRPV1 PAM
CCOc1cc(-c2noc(CCC(=O)NCC3CCCO3)n2)ccc1OC (stereo not drawn),0,3,0.0,8,11,23
O=C(NCCN1CCOCC1)c1cc(Cl)ccc1Cl,-1,-5,0.6,5,-15,-3

# (listing goes on)
SMILES,CtBP-E1A inh,D2 potentiator,TRPML1 agonist,Six1-Eya2 inh,TRPML1 inh,TRPV1 PAM
CC1(C(=O)Nc2cccc(-n3cnnn3)c2)Cc2ccccc2C(=O)O1 (stereo not drawn),-1,-14,-0.1,-4,-6,/
Cc1c(C(=O)NC(Cc2ccccc2)c2nc3ccccc3[nH]2)cccc1[N+](=O)[O-] (stereo not drawn),-21,-6,3.0,-8,12,-7
Cc1onc(-c2ccccc2)c1NC(=O)N(CCC#N)Cc1cccs1,/,-18,-0.8,-1,-4,6
O=C(NNC(=O)C12CC3CC(CC(C3)C1)C2)c1ccccc1[N+](=O)[O-],-5,-5,-0.1,6,12,6
Cc1cc(Oc2ccc(-c3nnc(-c4ccccc4)o3)cc2[N+](=O)[O-])ccc1Cl,7,-12,-0.1,4,1,9
CCc1c(C(=O)N/N=C/c2ccc(C)o2)csc1C,2,-12,0.6,-2,28,-24
O=C(COc1cccc2c1CCN(Cc1ccc(Br)cc1)C2=O)NCc1ccco1,-1,-8,1.4,-2,30,0
CCCCn1c(N)c(N(C)C(=O)c2ccc(Br)o2)c(=O)[nH]c1=O,8,-2,-0.4,6,10,-4
N#CCCCc1cc2ccccc2cn1,-10,/,-0.7,4,8,/
COC(=O)C(C)Nc1cccc(Br)c1 (stereo not drawn),/,-15,-0.5,4,-6,-6
Cc1cc(C)c(NC(=O)COC(=O)c2ccc([N+](=O)[O-])s2)c(C)c1,3,-8,1.2,6,1,15
CNC(=O)c1c(NC(=O)C(C)C)sc2c1CCC2,2,0,1.4,3,7,-10
CN=c1scc(C)n1/N=C/c1ccc(O)cc1O,?,-3,2.5,?,-17,-27
CN(c1ccccc1)S(=O)(=O)c1ccc(Cl)c(C(=O)NCc2ccco2)c1,0,-1,-1.1,7,0,/
CCc1cccc(NC(=O)c2cc(OC)c(OC)c(OC)c2)c1,-27,-8,0.5,-6,-12,-2
COc1ccc(-n2nc(C(=O)NCCc3ccc(OC)c(OC)c3)c3c4ccccc4n(C)c3c2=O)cc1,/,/,1.0,/,17,-4
CNC(=O)CSc1nnc(-c2cccc(S(=O)(=O)N3CCOCC3)c2)n1-c1ccc(F)cc1,4,-5,-0.5,4,-26,-1
S=c1nc(-c2sccc2OCc2ccc(Cl)cc2Cl)[nH][nH]1,/,-8,1.0,-6,-4,24
Cc1ccc(-n2c(=O)c3sccc3n(Cc3cc(=O)n4cc(Cl)ccc4n3)c2=O)cc1F,-8,5,1.4,1,-7,1
O=c1[nH]c(NCCO)nc2c1C1(CCCC1)Cc1ccccc1-2,9,-17,-0.7,-2,22,-5

# Among those listed so far, these contain a cyano group:
SMILES,CtBP-E1A inh,D2 potentiator,TRPML1 agonist,Six1-Eya2 inh,TRPML1 inh,TRPV1 PAM
CCc1ccccc1N1CSC2=C(C#N)C(c3cc(OC)c(OC)cc3OC)CC(=O)N2C1 (stereo not drawn),-27,18,-0.9,-28,-14,-25
C=CCn1c(=O)c2ccccc2n2c(SCC(=O)/C(C#N)=C(\C)N)nnc12,-2&-4,-3&0,0.5&0.2,1&0,24&14,-12
Cc1onc(-c2ccccc2)c1NC(=O)N(CCC#N)Cc1cccs1,/,-18,-0.8,-1,-4,6
N#CCCCc1cc2ccccc2cn1,-10,/,-0.7,4,8,/
